Screening results deposited in PubChem BioAssay by National Center for Advancing Translational Sciences (NCATS).
CtBP-E1A blk – qHTS Assay for Inhibitors of the CtBP/E1A Interaction; 340,000 compounds, 0.49% hits; AlphaScreen GST-E1A/His-CtBP binding, 1536-well; hits give low values; control for the full effect not named in the record; activity change, % (concentration not given with the values); CtBP / adenovirus E1A interaction (AlphaScreen); in the data active means activity change below about -65%; inconclusive means about -30% to -65%; inactive means above about -30%; also: % is scaled to controls: 0 for no effect and ±100 for the full control effect
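GST-E1A and His-tagged CtBP (125 nM each as 5X stock) were preincubated with pin-transferred compound for 2 h at 37 °C in the dark, then glutathione donor and nickel acceptor beads were added for 1 h before AlphaScreen reading.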
D2 agonist – Beta-Arrestin HTS for Positive Allosteric Modulators of the Human D2 Dopamine Receptor: Agonists | DiscoveRx PathHunter D2 beta-arrestin, luminescence, 90 min; 100% = 57 uM dopamine signal | activation, % (concentration not given with the values) | 360,000 compounds, 0.084% hits; in the data active = activation above about 40%; inconclusive = about 15% to 40%; inactive = below about 15%; also: the text of the record calls up to 30% inactive
Target sequence (P14416 whole entry, looked up): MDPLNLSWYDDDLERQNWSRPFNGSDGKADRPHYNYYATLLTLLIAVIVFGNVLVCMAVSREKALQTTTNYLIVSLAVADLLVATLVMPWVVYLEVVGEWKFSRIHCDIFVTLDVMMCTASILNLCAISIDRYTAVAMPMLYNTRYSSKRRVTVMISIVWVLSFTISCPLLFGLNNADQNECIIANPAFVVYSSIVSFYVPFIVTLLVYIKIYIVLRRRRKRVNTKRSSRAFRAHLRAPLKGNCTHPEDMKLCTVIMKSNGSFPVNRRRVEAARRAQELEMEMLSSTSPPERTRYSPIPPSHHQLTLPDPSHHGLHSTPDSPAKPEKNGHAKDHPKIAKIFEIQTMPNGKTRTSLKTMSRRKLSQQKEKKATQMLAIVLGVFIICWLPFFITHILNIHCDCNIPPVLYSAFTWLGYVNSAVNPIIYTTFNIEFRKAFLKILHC
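DiscoveRx PathHunter D2 beta-arrestin cells (2,100/well) attached overnight, then compound-stimulated 90 min at 37 C in HBSS/10 mM HEPES/0.1% Tween-20 buffer; beta-galactosidase complementation read by luminescence after 1 h at ambient temperature. Dopamine 57 uM final (EC100) as control.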
gsp antag – qHTS for Antagonists of gsp, the Etiologic Mutation Responsible for Fibrous Dysplasia/McCune-Albright Syndrome: qHTS; gsp-mutant cells, cAMP HTRF, 30 min; control for the full effect not named in the record; Potency, µM (series often up to 76.9 µM), for inactives: at the top dose activity change, negative = inhibition, most hits filed as inhibitors; 340,000 compounds, 0.4% hits; active = falling curve of any shape with a large fitted effect; inconclusive = falling curve, mostly with a smaller effect; inactive = flat or rising curve; cell line not stated here;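 also: intracellular cAMP measured with PDE inhibitor Ro 20-1724 present during compound exposure; potency is read from the fitted curve at half-maximal effect; % is scaled to controls: 0 for no effect and ±100 for the full control effect; nearly all actives have a fitted effect of over 65% in size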
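G418-selected cells were plated in DMEM/10% FBS for 16-24 h at 37C, then treated with compounds plus the PDE inhibitor […] (300 uM solution added) for 30 min at 37C. Intracellular cAMP was measured by HTRF after 30 min lysis at room temperature.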
D2 PAM – Beta-Arrestin HTS for Positive Allosteric Modulators of the Human D2 Dopamine Receptor: Potentiators. 360,000 compounds, 0.23% hits. potentiation, % (test concentration not listed). DiscoveRx D2 beta-arrestin cells, luminescence, 90 min; 100% = 57 uM dopamine signal; active = potentiation of 50% or more; inconclusive = 30% to 50%; inactive = 30% or less;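 also: compound concentration not given in the record; tested on top of an EC20 dose of dopamine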
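PathHunter beta-arrestin assay in DiscoveRx D2 cells. Compounds were added with an EC20 of dopamine (50 nM final) for 90 min at 37 deg C. Luminescence was read 1 h after detection reagent, with 57 uM dopamine as the EC100 control.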
gsp ag – qHTS for Agonist of gsp, the Etiologic Mutation Responsible for Fibrous Dysplasia/McCune-Albright Syndrome: qHTS; gsp mutant cells, cAMP HTRF, 30 min; control for the full effect not named in the record; Potency, µM (highest dose often 76.9 µM), for the others: at the top dose activation (cAMP increase), hits mostly activators; 340,000 compounds, 0.13% hits; AID 624287, 2012; active = well fitted activation curve with a large enough effect; inconclusive = small, poorly fitted or top-dose-only effect, or another doubt; inactive = no such curve, though single readings can be large or run the other way; cell line not stated here;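 also: phosphodiesterase inhibitor Ro 20-1724 added with compounds to block cAMP breakdown; potency is read from the fitted curve at half-maximal effect; nearly all actives have a fitted effect of over 60% in size; about a fifth of the inactives were tested at one dose only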
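Cells stably selected in G418 were plated at 2000/well, grown 16-24 hr, then given compounds in DMSO with the PDE inhibitor […] (300 uM solution added) for 30 min at 37C; cAMP was read by HTRF.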
Six1-Eya2 inh – qHTS Assay for Inhibitors of the Six1/Eya2 Interaction; AlphaScreen GST-Six1/His-Eya2 binding, biochemical; hits give low values; control for the full effect not named in the record; activity change, % (test concentration not listed); 360,000 compounds, 0.56% hits; AID 651725, 2012; in the data active = activity change below about -65%; inconclusive = about -30% to -65%; inactive = above about -30%; also: % is scaled to controls: 0 for no effect and ±100 for the full control effect
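Homogeneous AlphaScreen proximity assay pairing GST-Six1 with His-tagged Eya2 (added as 5X mix: 250 nM and 500 nM) in 50 mM Tris pH 8.0, 300 mM NaCl, 1 mM TCEP. Glutathione donor and nickel acceptor beads; 1 h, 37 °C, dark.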
Starred values were filed as active, the others as inactive; ? = inconclusive; / = not tested or not shown; [ ] = another dose, or the depositor's remark.

Every second line gives: CtBP-E1A blk	D2 agonist	gsp antag	D2 PAM	gsp ag	Six1-Eya2 inh
> CCOC(=O)C1(Cc2cccc(OC)c2)CCCN(C(=O)c2cc(C)[nH]n2)C1 (stereo not drawn)
    8	-2.9	3%	-7	6%[15.4 µM]	8
> CCO[C@@H]1OC(C(=O)N2CCOCC2)=C[C@H](c2ccccc2)[C@H]1CCCO
    3	-4.4	4%	-8	/	-1
> CC1CCN(S(=O)(=O)c2ccc3nc(-c4ccccn4)cc(C(=O)NCCN(C)Cc4ccccc4)c3c2)CC1
    -2	-4.1	4%	-5	1%	2
> CCOP(C)(=O)C1(C(=O)OCc2ccccc2)CC1 (stereo not drawn)
    -3	4.0	4%	3	7%	14
> O=C(CN1CC(=O)Oc2ccccc21)NCc1ccco1
    ?	8.0	-7%	7	-2%	-72*
> CC(C)(C)NC(=O)C(c1ccccn1)N(C(=O)C1CSC(=O)C1)c1ccc(F)cc1 (stereo not drawn)
    2	-3.3	0%	-9	-45%[inhibitor]	-2
> CCCc1nnc(NC(=O)CCC(=O)N2CCN(Cc3cc(Cl)ccc3OC)CC2)s1
    -14	-4.2	-1%	-33	41%	-1
> O=C(/C=C/c1ccccc1Cl)NC1CCCCC1
    /	-0.4	6%	-6	-23%	11
> Cn1c(=O)oc2cc(S(=O)(=O)NCCC(=O)NCCc3ccccc3)ccc21
    1	-0.9	-13%	-5	2%	-1
> O=C(c1ccc2c(c1)CCN2S(=O)(=O)c1ccccc1)N1CCN(c2ccc(F)cc2)CC1
    -27	-0.2	-2%	-9	21%	-12
> O=C(C1=C[C@H](c2ccc(C(F)(F)F)cc2)C[C@H](OCc2ccc(CO)cc2)O1)N1CCCCCCC1
    -6	-1.4	-25%	-10	/	1
> COc1ccccc1-c1nc2n(n1)C(c1ccc(Cl)cc1)C(C(N)=O)=C(C)N2 (stereo not drawn)
    -2	-1.4	0%	-6	16%	0
> CCOc1ccc(S(=O)(=O)N2CCC(C(=O)NCCc3ccc(OC)c(OC)c3)CC2)cc1
    1	-1.2	-1%	1	28%	0
> O=C(c1cc(-c2cccs2)on1)N1CCc2ccccc2C1
    26	0.8	4%	-5	-30%	10
> Cc1ccc(-c2ccc3nnc(SCC(=O)NCC4CCCO4)n3n2)cc1 (stereo not drawn)
    7	1.0	0%	-1	9%	2
> Cc1ccc(/C=N/NC(=S)NC(C)C)o1
    -3	-2.7	15%	10	-15%	-4
> COc1ccc(/C=C/c2ccncc2)cc1OC
    2	-1.6	13%	25	-37%[inhibitor]	0
> COc1ccccc1CNc1cncnc1
    2	-0.1	3%	-10	-30%[15.4 µM]	-6
> CCc1ccccc1NC(=O)CCc1c(C)nc(SC)nc1C
    -25	4.4	5%	1	10%	-10
> Cc1ccc(N(Cc2ccc(C(=O)NCCSc3ccccn3)cc2)S(C)(=O)=O)cc1C
    0	-1.4	-5%	20	-55%[inhibitor]	7
> CC(C)(C)c1cc(NC(=O)c2cccc([N+](=O)[O-])c2)no1
    10	0.7	16%	-6	-1%[15.4 µM]	-20
> COc1ccc(/C=N/NC(=O)C(N)=O)c(OC)c1OC
    0	-7.2	2%	-7	18%[15.4 µM]	10
> CCOC(=O)N1CCN(CC(O)COCc2ccccc2)CC1 (stereo not drawn)
    11	-0.2	0%	3	3%	0
> Cc1ccc(-c2c[n+](Cc3ccc(Cl)c(Cl)c3)c3n2CCC3)cc1
    -1	-3.3	-6%	-40	0%	-2
> O=C(CCc1ccccc1)NC1C2CC3CC(C2)CC1C3 (stereo not drawn)
    2	-1.6	-2%	-6	-45%[inhibitor]	19
> O=C(COc1ccc(Cl)cc1Cl)N/N=C/c1ccc(OC2OC(CO)C(O)C(O)C2O)cc1 (stereo not drawn)
    /	1.1	8%	-11	18%	-10
> COc1ccc(CCNC(=O)CCc2ccc(S(=O)(=O)NC(C)C)cc2)cc1OC
    -4	-0.4	-6%	-16	12%	1
> COCCn1c(N)c(N(Cc2ccccc2)C(=O)c2ccc(-c3ccc(Cl)cc3)o2)c(=O)[nH]c1=O
    -21	-0.2	-8%	4	-50%[inhibitor]	2
> Cc1ccc(S(=O)(=O)NCC(c2ccc3c(c2)OCO3)N2CCOCC2)cc1 (stereo not drawn)
    3	-1.6	-11%	-16	6%[15.4 µM]	2
> CCN(CC)C(=O)c1ccc(COc2ccccc2Cl)cc1
    5	-0.4	-15%	-9	-30%[inhibitor]	3

Limited to Six1-Eya2 inh (7 entries from above):
compound	Six1-Eya2 inh
O=C(C1=C[C@H](c2ccc(C(F)(F)F)cc2)C[C@H](OCc2ccc(CO)cc2)O1)N1CCCCCCC1	1
COc1ccccc1-c1nc2n(n1)C(c1ccc(Cl)cc1)C(C(N)=O)=C(C)N2 (stereo not drawn)	0
CCOc1ccc(S(=O)(=O)N2CCC(C(=O)NCCc3ccc(OC)c(OC)c3)CC2)cc1	0
O=C(c1cc(-c2cccs2)on1)N1CCc2ccccc2C1	10
Cc1ccc(-c2ccc3nnc(SCC(=O)NCC4CCCO4)n3n2)cc1 (stereo not drawn)	2
Cc1ccc(/C=N/NC(=S)NC(C)C)o1	-4
COc1ccc(/C=C/c2ccncc2)cc1OC	0

(list continues)
Every second line gives: CtBP-E1A blk	D2 agonist	gsp antag	D2 PAM	gsp ag	Six1-Eya2 inh
> O=C1O[C@H](CO)[C@@H](O)[C@H](O)[C@H]1O
    5	-3.0	6%	-15	/	5
> Cc1cccc(N(CC(O)CON=C2c3ccccc3-c3ccccc32)S(C)(=O)=O)c1 (stereo not drawn)
    -7	0.0	-12%	16	-56%[inhibitor]	0
> COc1ccccc1CNC(=O)[C@@H]1CCCN1C(=O)C1CCN(S(=O)(=O)c2ccc(C)cc2)CC1
    4	0.6	-10%	-10	-45%[inhibitor]	-4
> CCN1CCN(S(=O)(=O)c2ccc(Cl)c(C(=O)NC3CC3)c2)CC1
    3	-2.5	1%	-6	2%	2
> COc1ccc(Cl)cc1S(=O)(=O)N1CCC(C(=O)NC2CCCC2)CC1
    3	-6.1	2%	-15	-11%	4
> CC(=O)N1CCN(C(=O)c2ccc(S(=O)(=O)Nc3cccc(C(F)(F)F)c3)cc2)CC1
    5	-0.3	?	1	11%[15.4 µM]	5
> CCN(CC)S(=O)(=O)c1cccc(C(=O)OCC(=O)NCc2ccccc2OC)c1
    1	-0.9	-10%	11	-7%[15.4 µM]	1
> NC(=O)COc1ccc2c3c(c(=O)oc2c1)CCCCC3
    -4	-1.3	-1%	-5	1%	-2
> CSc1nc2nc3c(c(=O)n2[nH]1)CCCC3
    2	-1.5	-9%	7	2%	-7
> CCN(CC(=O)Nc1ccc(OC)cc1)C(=O)c1ccc(N2C(=O)CCC2=O)cc1
    0	-2.4	-16%	-3	?	1
> COc1ccccc1C(=O)N/C(N)=N/c1nc2ccccc2o1
    3	-9.0	5%	-4	-17%	0
> CCOc1ccc(C(CC(=O)O)NC(=O)c2sc3ccccc3c2Cl)cc1 (stereo not drawn)
    -6	-6.3	12%	0	?	2
> CCOc1ccc(NC(=O)Cn2ncc3ccccc32)cc1
    5	-0.9	9%	-2	-5%	8
> Cc1ccc(S(=O)(=O)NCCC(=O)N2CCCCCCC2)cc1C
    0	-2.8	-11%	-9	11%	0
> COc1ccc(S(=O)(=O)N2CCCOC2CNC(=O)C(=O)NCCCN2CCOCC2)cc1C (stereo not drawn)
    9	-2.4	14%	1	0%[15.4 µM]	1
> O=C(C1CC1)N1CCc2cc(Br)cc(S(=O)(=O)NCc3ccccn3)c21
    -5	-4.1	0%	-18	-7%	-10
> Cc1ccccc1CN(C)CC(=O)NC(C)CCc1ccccc1 (stereo not drawn)
    -3	-23	8%	-3	3%[15.4 µM]	2
> CCOC(=O)C1CCN(c2ncnc3c2c(-c2ccccc2)cn3-c2ccc(C)cc2)CC1
    0	-5.4	-3%	0	-2%[15.4 µM]	-4
> Cc1ccc([C@@H]2C[C@H]3[C@@H](CN2S(=O)(=O)c2ccc(Cl)cc2)C(=O)C[C@@H](c2cccc(Cl)c2)N3S(=O)(=O)c2ccc(C)cc2)cc1
    -9	-9.2	/	0	-17%	-3
> Cn1c(N2CCCCC2)cc(=O)n(C)c1=O
    -3	-0.4	0%	-4	10%	10
> CCOC(=O)C1=C(C)Nc2ncnn2C1c1ccc2c(c1)OCO2 (stereo not drawn)
    5	-4.4	-7%	-4	0%	-2
> Cc1ccc(C(=O)NCC(=O)N2CCCN(S(=O)(=O)c3ccc(C)cc3)CC2)cc1
    -3	2.8	-3%	-20	-48%[inhibitor]	3
> O=C(O)/C(=C/c1ccc(Cl)c([N+](=O)[O-])c1)c1ccc(S(=O)(=O)N2CCCCC2)s1
    -4	-4.3	-22%	0	1%	-23
> CC(=O)c1c(N2CCN(Cc3ccc4c(c3)OCO4)CC2)nc(=S)n(-c2ccccc2)c1C
    6	1.8	-6%	-12	-1%	0
> COc1ccc(Nc2cccccc2=O)cc1
    -2	0.5	11%	-5	0%	-12
> COc1cc(/C=N/NC(=O)c2ccc(N3CCCC3=O)cc2)ccc1O
    3	-2.5	-4%	1	-4%[15.4 µM]	-21
> Cc1ccc(C(C(=O)NC2CCCC2)N(C(=O)CNC(=O)c2ccco2)c2ccccc2)o1 (stereo not drawn)
    -10	-1.0	14%	-8	-5%[15.4 µM]	-2
> Cc1ccccc1OC(C)C(=O)Nc1ccc(S(=O)(=O)Nc2nccs2)cc1 (stereo not drawn)
    2	7.5	-21%	2	0%	-7
> CCc1nc2ccc(C(=O)Nc3cccc(OC)c3)cn2c1N(CC)CCN(C)C
    1	7.1	/	-3	/	-2
> COc1ccccc1C(=O)N(C1=NC(C)CS1)c1ccc(Cl)cc1 (stereo not drawn)
    31	-3.5	?	4	28%	8

Structures listed so far that have a nitro group on carbon (2):
Every second line gives: CtBP-E1A blk	D2 agonist	gsp antag	D2 PAM	gsp ag	Six1-Eya2 inh
> CC(C)(C)c1cc(NC(=O)c2cccc([N+](=O)[O-])c2)no1
    10	0.7	16%	-6	-1%[15.4 µM]	-20
> O=C(O)/C(=C/c1ccc(Cl)c([N+](=O)[O-])c1)c1ccc(S(=O)(=O)N2CCCCC2)s1
    -4	-4.3	-22%	0	1%	-23
